Bioassay records deposited in PubChem by ICCB-Longwood Screening Facility, Harvard Medical School.
GIV-Gai inh – GIV-Galpha-i interaction inhibition; P08753; Galpha-i3/FITC-GIV peptide fluorescence polarization, 90 min; hits give low values; scaled: aluminum fluoride 0%, vehicle 100%; percent of control (FP), % (concentration not given with the values); 210,000 tested, 0.42% active; AID 1224905;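 active = replicate mean at 85% of control or lower, very high polarization wells dropped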;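 note: wells of about 15 µL received 100 nL stock; the first replicate is given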
Target sequence (P08753 whole entry, looked up): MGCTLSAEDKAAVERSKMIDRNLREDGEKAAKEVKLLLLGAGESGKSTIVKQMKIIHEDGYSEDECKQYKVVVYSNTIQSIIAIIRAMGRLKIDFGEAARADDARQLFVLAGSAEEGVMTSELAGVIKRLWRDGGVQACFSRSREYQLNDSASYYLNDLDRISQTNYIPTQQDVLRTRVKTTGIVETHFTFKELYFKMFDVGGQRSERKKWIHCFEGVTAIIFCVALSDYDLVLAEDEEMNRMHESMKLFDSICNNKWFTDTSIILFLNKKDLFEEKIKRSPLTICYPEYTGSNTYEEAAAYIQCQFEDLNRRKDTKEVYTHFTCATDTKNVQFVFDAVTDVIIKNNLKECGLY
* marks the source's active call; other numbers are inactive results. Not all compounds are listed; the hit share may differ from the screen's.

SMILES	GIV-Gai inh
COC(=O)c1ccsc1NC(=O)c1ccc2c(c1)OCCO2	102
FC(F)(F)c1cccc(N=c2oc3ccccc3cc2-c2nc(-c3ccccc3)cs2)c1	109
Cc1cc(C)c(NC(=O)CCc2nc(CSc3nc4ccccc4o3)no2)c(C)c1	102
Cc1ccc(/C=N/NC(=O)CN(c2c(C)n(C)n(-c3ccccc3)c2=O)S(=O)(=O)c2ccccc2)cc1	102
O=C(COc1ccccc1)Nc1cc(-c2cccc(Br)c2)nn1-c1ccccc1	100
CC(C)CCNc1ccc2nncn2n1	99
COc1cccc(NC(=O)c2ccc(Oc3ccnc(-c4cccc(C)c4)n3)cc2)c1	103
CC1(C(=O)NCc2ccccc2)CCCN(C(=O)c2ccccc2Br)C1 (centres undefined)	108
COC(=O)CSc1sc(=O)sc1SCC#N	93
Cc1csc(NC(=O)Cc2nn(C)c(=O)c3ccccc23)n1	105
O=C(c1ccccc1F)N1CCN(Cc2cc(=O)n3nc(-c4ccccc4F)sc3n2)CC1	102
CC(=O)Nc1ccc(-c2noc(C3CCCN(C(=O)c4ccc(Cl)cc4)C3)n2)cc1 (centres undefined)	107
COCCN1C(=O)C(=O)/C(=C(/O)c2ccccc2)C1c1cc(OC)ccc1OC (centres undefined)	105
Nc1nonc1-n1nnc(C(=O)N/N=C/c2cccs2)c1-c1ccccc1	107
O=C(Nc1cnn(-c2ncc(N3CCCC3)cn2)c1)NC1CCCC1	99
COc1ccc2c(c1)C(C)CC(C)(C)N2C(=O)Nc1ccccc1 (centres undefined)	109
CCc1ccc(S(=O)(=O)N2CCC3(CC2)NCCN=C3NCc2ccccc2)cc1	98
O=C1CC(c2ccccc2OC2CCCC2)c2cnn(-c3nc4ccccc4s3)c2N1 (centres undefined)	98
O=C(CSc1nc2c(sc(=S)n2Cc2ccco2)c(=O)n1-c1ccccc1)NC1CCCC1	107
CC(=O)c1ccc(NC(=O)CSc2nc3ccc(NC(=O)c4ccccc4C)cc3s2)cc1	107
COc1ccc(CNC(=O)c2ccc(Oc3ccnc(-c4ccc(F)cc4)n3)cc2)c(OC)c1	100
Cc1ccc(-c2ccc(-n3nc(C)c(S(=O)(=O)N4CCC(C)CC4)c3C)nn2)cc1	105
CCC(=O)Nc1nc2c(c3c1c(=O)oc1ccccc13)CC(C(C)(C)C)CC2 (centres undefined)	113
COc1ccc(C2Nc3ccc(Br)cc3C(c3ccccc3)O2)c(OC)c1 (centres undefined)	103
Cc1nc(CNC(=O)[C@H]2CSCN2S(=O)(=O)c2ccccc2F)cs1	104
CCCNC(=O)c1nnn(-c2ccccc2)c1-c1ccncc1	104
CN1CCN(C(=O)c2csc(N3CCCCC3)n2)CC1	107
O=C1/C(=C/c2ccc(Cl)cc2)C=C(c2ccccc2)N1c1ccccc1O	214
O=[N+]([O-])c1ccc(-c2nc3ccccc3nc2-c2ccccc2)cc1	118
Cc1ccc(Nc2nc(-c3ccc(C)c(C)c3)cs2)nc1	106
CCOC(=O)C1CCN(c2ncccc2-c2nnc(-c3ccccc3)o2)CC1	108
O=S(=O)(c1cn(Cc2noc(-c3cccc(Cl)c3)n2)cn1)N1CCOCC1	105
Cc1ccc(C(=O)Nc2cnc3oc(-c4ccccc4OC(C)C)nn3c2=O)cc1	101
CCCCOC(=O)c1ccc(N2C(=O)C3C4c5ccccc5C(c5ccccc54)C3C2=O)cc1 (centres undefined)	108
COc1cccc(C2C3=C(NCCN=C3c3ccc(Cl)cc3)C(=O)N2c2ccccc2)c1 (centres undefined)	113
CCc1ccc(NC(=O)Nc2cc(C)cc3c(-c4ccccc4)c(C(=O)N4CCOCC4)[nH]c23)cc1	100
CCn1c(=O)sc2cc(S(=O)(=O)N3CCN(C(=O)c4cc5ccccc5[nH]4)CC3)ccc21	100
COCCNc1nc(SCC(=O)c2ccccc2)nc2ccccc12	100
N#CC1(C#N)[C@@H]2c3ccccc3C=CN2[C@@H](C(N)=O)[C@@H]1c1ccccc1F	106
Cc1ccc(CN2CCCC2c2c(C)noc2C)s1 (centres undefined)	109
Cc1nn(-c2ccc(-c3ccccc3)nn2)c(C)c1S(=O)(=O)N1CCOCC1	107
Cc1c(C(c2ccc(OCc3ccccc3)cc2)c2c(C)n(C)n(-c3ccccc3)c2=O)c(=O)n(-c2ccccc2)n1C	110
Cc1cc(C2CCCN2C(=O)c2cccs2)no1 (centres undefined)	102
Cc1ccc(Cl)cc1NC(=O)N(C)CCc1noc(C(=O)NCc2ccc(Cl)cc2)n1	105
CCc1ccc(S(=O)(=O)Nc2ccc3c(c2)c(C(C)=O)c(C)n3S(=O)(=O)c2ccc(CC)cc2)cc1	118
COc1ccc(-c2[nH]nc3c2C(c2ccc(OC(=O)c4ccco4)cc2)C(C#N)=C(N)O3)cc1 (centres undefined)	102
Cc1ccc2c(c1)C1(c3ccccc3)Nc3ccc(C)cc3C1(c1ccccc1)N2 (centres undefined)	120
COc1ccc(N2C(=S)N=C(Nc3ccccc3)C23CCCCC3)cc1	113
COc1ccc(-c2cncc(C(=O)NCc3ccc(Br)cc3)c2)cc1	97
Cc1ccc(NC(=O)CC2CCN(C(=O)c3cn(-c4ccccc4)nc3-c3ccccc3)CC2)cc1	100
COc1cc(C=Nc2c(C)n(C)n(-c3ccccc3)c2=O)ccc1OC(C)=O	111
Cc1ccc(-c2noc(C3CCCN3C(=O)C(NS(=O)(=O)c3ccc(C)cc3)C(C)C)n2)cc1 (centres undefined)	98
CN1CCN(c2ncncc2N2CCC(C(=O)NC3CCCCC3)CC2)CC1	108
CCOC(=O)c1cc(C)nc2c1c(=O)n(Cc1nc(-c3ccc(C)cc3)oc1C)c(=O)n2C	101
O=C(CSc1nc2ccccc2n1S(=O)(=O)c1ccc(Cl)cc1)NCc1cccs1	114
O=C(Cn1nc2c3sc(N4CCCCC4)nc3ncn2c1=O)Nc1ccc(Cl)cc1F	107
Clc1ccc(C2Oc3ccccc3C3=C2C(c2cccs2)n2ncnc2N3)cc1 (centres undefined)	102
Cc1c(C(=O)Nc2c(F)cccc2F)sc2ncn(CC(=O)Nc3cccc(C(F)(F)F)c3)c(=O)c12	101
Cc1nn2c(CNS(=O)(=O)c3cn(C)c(C)n3)c(C)nc2s1	103
Clc1ccccc1-c1noc(Cc2nc(-c3ccc4c(c3)OCO4)cs2)n1	99
New compounds follow
SMILES	GIV-Gai inh
O=c1oc2ccc3ccccc3c2cc1-c1csc(Nc2ccc(Oc3ccc(Cl)cc3)cc2)n1	109
Cn1cnc(S(=O)(=O)N2CCC(c3nnc(C(=O)Nc4ccccc4)s3)CC2)c1	103
O=C1/C(=C/c2ccc([N+](=O)[O-])cc2)C=C(c2ccccc2)N1c1ccc(Nc2ccccc2)cc1	109
CC1CN(S(=O)(=O)c2ccc3c(c2)C(=O)Nc2ccccc2O3)CC(C)O1 (centres undefined)	100
CCOc1ccc(C2=NN3C(C2)c2cccc(OCC)c2OC3c2ccc(OCC)cc2)cc1 (centres undefined)	106
CC1=CN2C(=NC(=O)CC2(C)C(=O)O)C=C1 (centres undefined)	102
CC(C)(C)c1cc(C(c2ccccc2O)N2CCCCC2)cc(C(C)(C)C)c1O (centres undefined)	106
CC(C)OC1(c2ccccc2)OC(=O)c2ccccc21 (centres undefined)	100
CCOC(=O)C1=C(N)N(c2ccc(Br)cn2)C2=C(C(=O)CC(C)(C)C2)C1c1cccnc1 (centres undefined)	100
CCOC(=O)C1CCN(c2cc(-c3nc(-c4ccc(C)cc4)no3)c3ccccc3n2)CC1	103
CCOC(=O)C1=C(C)NC2=C(C(=O)C(C(=O)OCC)C(c3ccccc3OC)C2)C1c1ccc(SC)cc1 (centres undefined)	100
O=[N+]([O-])c1cccc(C2Nc3ccccc3C(c3ccccc3)(c3ccccc3)O2)c1 (centres undefined)	110
N#CC1=C(N)N(c2ccc(Br)cc2F)C2=C(C(=O)CCC2)C1c1ccsc1 (centres undefined)	128
O=C(NCc1csc(-c2cccs2)n1)[C@H]1CSCN1C(=O)c1ccco1	103
O=C(Nc1c2c(nn1-c1ccc(Cl)cc1)CS(=O)(=O)C2)c1ccc(S(=O)(=O)N2CCOCC2)cc1	108
CCOC(=O)C1=C(C)NC2=C(C(=O)C(C(=O)OCC)C(c3ccccc3OC)C2)C1c1ccc(Br)cc1 (centres undefined)	107
COC(=O)c1ccc2c(=O)n(Cc3ccc(C(=O)N4CCN(c5ccccn5)CC4)cc3)c(=S)[nH]c2c1	102
Cc1ccc(Cc2nc(CCNS(=O)(=O)c3ccc(C)cc3C)n[nH]2)cc1	104
COc1cc(-c2nc3sc4c(c3c(=O)[nH]2)CCCC4)ccc1OCCOc1ccc(Br)cc1	100
Brc1ccc2c(c1)cc(-c1nc3ccccc3[nH]1)c1nc3ccccc3n12	120
Cc1ccccc1C(=O)NCCc1sc2nc(-c3ccc(F)cc3)nn2c1C	101
Cc1nc(-c2csc(S(=O)(=O)NC(C)C)c2)sc1C(=O)N1CCCC1	108
COC(=O)c1ccc2c(=O)n(CCc3ccc(S(N)(=O)=O)cc3)c(SCC(=O)NCc3ccccc3)nc2c1	105
O=C(Nc1cccc(Cl)c1)c1nnc(C2CCCN(C(=O)c3ccccc3F)C2)s1 (centres undefined)	107

A different layout for part of the listing above:
GIV-Gai inh	structure
100	CCOC(=O)C1=C(C)NC2=C(C(=O)C(C(=O)OCC)C(c3ccccc3OC)C2)C1c1ccc(SC)cc1 (centres undefined)
110	O=[N+]([O-])c1cccc(C2Nc3ccccc3C(c3ccccc3)(c3ccccc3)O2)c1 (centres undefined)
128	N#CC1=C(N)N(c2ccc(Br)cc2F)C2=C(C(=O)CCC2)C1c1ccsc1 (centres undefined)
103	O=C(NCc1csc(-c2cccs2)n1)[C@H]1CSCN1C(=O)c1ccco1
108	O=C(Nc1c2c(nn1-c1ccc(Cl)cc1)CS(=O)(=O)C2)c1ccc(S(=O)(=O)N2CCOCC2)cc1
107	CCOC(=O)C1=C(C)NC2=C(C(=O)C(C(=O)OCC)C(c3ccccc3OC)C2)C1c1ccc(Br)cc1 (centres undefined)
102	COC(=O)c1ccc2c(=O)n(Cc3ccc(C(=O)N4CCN(c5ccccn5)CC4)cc3)c(=S)[nH]c2c1
104	Cc1ccc(Cc2nc(CCNS(=O)(=O)c3ccc(C)cc3C)n[nH]2)cc1
100	COc1cc(-c2nc3sc4c(c3c(=O)[nH]2)CCCC4)ccc1OCCOc1ccc(Br)cc1
120	Brc1ccc2c(c1)cc(-c1nc3ccccc3[nH]1)c1nc3ccccc3n12
101	Cc1ccccc1C(=O)NCCc1sc2nc(-c3ccc(F)cc3)nn2c1C
108	Cc1nc(-c2csc(S(=O)(=O)NC(C)C)c2)sc1C(=O)N1CCCC1
105	COC(=O)c1ccc2c(=O)n(CCc3ccc(S(N)(=O)=O)cc3)c(SCC(=O)NCc3ccccc3)nc2c1
107	O=C(Nc1cccc(Cl)c1)c1nnc(C2CCCN(C(=O)c3ccccc3F)C2)s1 (centres undefined)

New compounds follow:
SMILES	GIV-Gai inh
Cc1ccc(C(C)C)c(Oc2ccccc2NC(=O)c2cc(Br)cc(Br)c2O)c1	102
CCOc1cc(CN2CCCC2c2cc(CC)no2)ccc1OC(C)C (centres undefined)	100
O=[N+]([O-])c1cccc(C2=Nc3ccc(Br)cc3C(c3cccc([N+](=O)[O-])c3)=Nc3ccc(Br)cc32)c1	108
CCCc1nc(CNC(=O)C2CSCN2C(=O)c2ccc(C(C)(C)C)cc2)cs1 (centres undefined)	102
Cc1nn(-c2ccc(F)cc2)c2sc(C(=O)OCCOc3ccccc3)cc12	105
O=C(C1=NN(c2ccccc2)C2(S1)SC(c1ccc(Cl)cc1)(c1ccc(Cl)cc1)c1ccccc12)c1ccccc1 (centres undefined)	109
O=S(=O)(Nc1cc(F)cc(F)c1)c1ccc(-c2nnc(C3CCC3)o2)o1	107
COc1ccccc1-c1noc(-c2nn(-c3cccc(F)c3)ccc2=O)n1	102
CCOC(=O)c1c(NC(=O)C(C)Sc2nnc(CNC(=O)c3ccco3)n2C)sc2c1CCC2 (centres undefined)	101
COc1ccc(C(=O)Nn2c(SCC(=O)Nc3ccc(C)cc3)nc3ccccc3c2=O)cc1	98
CC(=O)Nc1ccc(-c2cc(C(=O)NCC3CCCO3)c3cc(C)ccc3n2)cc1 (centres undefined)	107
CCCCNc1ncnc2c1cnn2-c1ccc(C)cc1C	106
C/C(=N\O)c1oc2ccc3c(C)cc(=O)oc3c2c1-c1ccccc1	107
COc1ccc(C2(O)CN(c3ccccc3C)C3=[N+]2CCCS3)cc1OC (centres undefined)	108
COc1ccc(CCNC(=O)CCn2c(SCC(=O)Nc3ccc(C)cc3)nc3ccccc3c2=O)cc1OC	103
O=C1CSC(c2cn(-c3ccccc3)nc2-c2cccs2)N1Cc1ccccc1 (centres undefined)	101
CN(C)S(=O)(=O)c1ccc(-c2noc(C(=O)N3CCCC3)n2)cc1	104
Cc1ccc(NC(=O)c2sc3ncn(CC(=O)N4CCN(c5ccccn5)CC4)c(=O)c3c2C)cc1	99
COCCNc1nc(SCc2ccccc2Cl)nc2ccccc12	106
O=C(Nc1cc(-c2cccs2)no1)C1CC1	105
COCCn1cnc2sc(C(=O)N3CCC(C)CC3)c(C)c2c1=O	112
O=C(Nc1ncc(Cc2ccc(F)cc2)s1)C1CCCO1 (centres undefined)	105
Cc1sc(-c2nc(C(C)C)cs2)cc1S(=O)(=O)NCc1ccc2c(c1)OCO2	103
CCOC(=O)C(=O)N1c2cc(C)ccc2-c2c(ssc2=S)C1(C)C	106
C=CCNC(=O)c1ccc(Sc2ccc(NS(=O)(=O)c3ccc(C)c(C)c3)cc2)nc1	105
Fc1ccccc1-c1nc(-c2ccccc2)c(-c2ccc(Sc3ccccc3)cc2)[nH]1	112
Cc1ccc(N2C(=O)C3C(c4cccc(Cl)c4)OC4(C(=O)c5ccccc5C4=O)C3C2=O)cc1 (centres undefined)	117
OC(CN1CCOCC1)Cn1c2ccc(Br)cc2c2cc(Br)ccc21 (centres undefined)	105
COc1cccc(C(=O)N2c3c(OC)cccc3-c3c(ssc3=S)C2(C)C)c1	109
O=C(c1coc(-c2ccccc2)n1)N1CCCN(Cc2noc(-c3ccccc3)n2)CC1	102
